Screens deposited in PubChem BioAssay by several laboratories.
HIV Env fusion: inhibitors of HIV Env-mediated cell fusion | HeLa-JRFL Env/CEM21 cell fusion, luciferase | 1.1% of 360,000 active | AID 651610 | inhibition, % at 12.3 µM;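 active = mean replicate inhibition score of at least 50 and every replicate individually at or above 50; inconclusive = only one of the two criteria met; inactive = mean below 50 and not all replicates reaching 50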;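 also: 0% = plate neutral controls and 100% = maraviroc near 300 nM; one replicate is shown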
PABP polyA inh: blocks human PABP binding to poly(A) RNA | 1% of 290,000 active | AID 2014 | inhibition, % at 35 µM | fluorescence polarization;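 active = 50% or more with normal probe brightness, or confirmed in later tests; inconclusive = above 50% with abnormal brightness, or retests that disagree; inactive = below 50% or failed in later tests; about a fifth of its hits are not listed in these tables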;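 also: calls also rest on retests at 20 µM and on dose response follow-up; controls were probe without protein and protein plus probe with vehicle; some compounds called inactive have numbers as strong as hits; many hits fall short of the cut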
Target sequence (P11940 whole entry, looked up): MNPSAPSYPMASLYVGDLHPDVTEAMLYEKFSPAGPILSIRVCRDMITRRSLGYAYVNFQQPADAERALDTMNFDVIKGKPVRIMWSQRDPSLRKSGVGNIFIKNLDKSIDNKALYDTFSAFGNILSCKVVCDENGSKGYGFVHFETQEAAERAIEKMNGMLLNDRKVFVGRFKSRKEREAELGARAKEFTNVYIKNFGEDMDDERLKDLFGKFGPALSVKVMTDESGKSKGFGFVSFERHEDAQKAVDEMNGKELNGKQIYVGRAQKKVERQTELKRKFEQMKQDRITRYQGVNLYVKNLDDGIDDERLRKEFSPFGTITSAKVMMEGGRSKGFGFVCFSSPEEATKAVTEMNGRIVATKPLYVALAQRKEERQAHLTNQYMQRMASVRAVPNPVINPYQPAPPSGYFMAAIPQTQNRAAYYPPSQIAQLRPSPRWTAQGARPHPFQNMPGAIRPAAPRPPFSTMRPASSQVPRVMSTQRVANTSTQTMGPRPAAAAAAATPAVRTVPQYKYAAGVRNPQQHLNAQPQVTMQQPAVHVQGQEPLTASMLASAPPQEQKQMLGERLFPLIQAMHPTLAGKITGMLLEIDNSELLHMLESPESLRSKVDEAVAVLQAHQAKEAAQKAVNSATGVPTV
eIF4H inh: inhibitors of RNA binding by human eIF4H; Q15056; eIF4H fluorescence polarization binding assay; inhibition, % at 35 µM; 0.94% of 290,000 active; AID 2012;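 active = 50% or more with normal probe brightness, or confirmed in later tests; inconclusive = above 50% with abnormal brightness, or retests that disagree; inactive = below 50% or failed in later tests; about a fifth of its hits are not listed in these tables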;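 also: calls also rest on retests at 20 µM and on dose response follow-up; 0% = protein and probe with vehicle and 100% = probe without protein; strong numbers were not always called active; many hits fall short of the cut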
CSC inhib: blocks cancer stem cells | inhibition, % at 7.5 µM | cancer stem cell-like cells viability, luminescence | 1.1% of 300,000 active;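 active = mean at 75% or more and at least half the replicates too; inconclusive = mean and replicates disagree; tested in HMLE shEcad cells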;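 also: 0% = median of negative and 100% = median of positive control wells; the first replicate is given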
Rce1 inh: inhibitors of yeast Ras-converting enzyme; yeast membranes, quenched prenylated peptide cleavage fluorescence; calls only; 0.27% of 290,000 active;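 active = fall in fluorescence gain of 50% or more versus controls, with final raw signal at or below 3038400; inconclusive = same 50% fall but final raw signal above 3038400; inactive = fall in fluorescence gain under 50%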;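 also: plate controls were neutral control wells for no effect and wells lacking membranes for full effect; tested at 10 µM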
Target sequence (Q03530 whole entry, looked up): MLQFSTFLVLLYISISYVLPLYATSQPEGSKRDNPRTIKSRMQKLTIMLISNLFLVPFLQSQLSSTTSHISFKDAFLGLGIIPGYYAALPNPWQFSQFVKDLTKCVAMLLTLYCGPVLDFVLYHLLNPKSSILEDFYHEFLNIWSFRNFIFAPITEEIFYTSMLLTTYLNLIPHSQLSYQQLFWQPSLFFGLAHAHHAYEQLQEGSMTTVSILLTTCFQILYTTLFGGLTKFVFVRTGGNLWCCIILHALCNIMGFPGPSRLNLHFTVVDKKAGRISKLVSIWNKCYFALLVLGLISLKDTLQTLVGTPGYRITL
MT1-MMP act inh: inhibitors of human MT1-MMP activation. P50281. HT1080 RFP-PRO-GFP cells, GFP/RFP ratio fluorescence, overnight; percent of plate control window, DMSO zero. GFP/RFP ratio change, % at 20 µM. 0.061% of 360,000 active. AID 651647;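 active = GFP/RFP ratio change of at least 30% with cell ATP level not reduced by more than half and red fluorescence within 50% of control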; also: strong numbers were not always called active
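Test system: HT1080 RFP-PRO-GFP cells; Benchmarks: DMSO and RFP-L50D-GFP cell wells; Timing: cells overnight before dosing, compound overnight, 37 °C, 5% CO2; Compound: one 20 µM compound dose with 1% DMSO; Read-out: GFP/RFP fluorescence ratio.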
Yeast UUG start: alters start codon recognition fidelity in yeast; S. cerevisiae UUG-firefly luciferase reporter, luminescence/redox ratio; activity score, % at 18.7 µM; 0.13% of 350,000 active; AID 602363;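 active = replicate mean at a twofold rise or more, about +100% in these data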;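 also: firefly luciferase made from a UUG start codon reports start codon fidelity; reporter light over untreated wells divided by growth signal over untreated wells; some hits fall short of that in this replicate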
eIF4H inh retest: also measured in eIF4H inh; calls as there; inhibition, %; compound at 20 µM; confirmation average;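 mean of two retest wells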
PABP polyA inh retest: further read-out of PABP polyA inh, marked with its call; inhibition, %; compound at 20 µM; confirmation repeats;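 mean of two retest wells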
MT1-MMP act inh RFP: recorded beside MT1-MMP act inh, whose call it bears; RFP signal change, %; measured here: RFP expression control read;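 0 = vehicle wells; hits needed this value within 50% of zero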
* marks the source's active call; other numbers are inactive results; i = inactive; ? = inconclusive; / = not tested or not shown; & = joins results of further samples.

SMILES | HIV Env fusion | PABP polyA inh | eIF4H inh | CSC inhib | Rce1 inh | MT1-MMP act inh | MT1-MMP act inh RFP | Yeast UUG start | others
COc1ccc2c(c1)OC[C@H]1[C@H]2N2C(=O)CN(Cc3ccc(Cl)cc3)C(=O)[C@@]2(C)[C@H]1c1ccccc1 | 73* | / | / | 32 | / | 3 | -2 | -13
O=C(O)c1ccc([N+](=O)[O-])c(CS(=O)(=O)c2ccccc2)c1 | 7 | 0 | -10 | -16 | i | 0 | 2 | -7
Cc1ccc2cc3cc(C(=O)NCCCN4CCCCCC4)oc3nc2c1 | -71 | 10 | -3 | -1 | ? | 7 | 0 | -6
COc1ccc(S(N)(=O)=O)cc1C(=O)NCC1(N2CCCCC2)CCCCC1 | -10 | 4 | -6 | / | i | -6 | 2 | -20
Cc1nc(CNC(=O)C2CCC(=O)N(CCc3ccc(Cl)cc3)C2)sc1C (stereo unspecified) | / | -2 | -2 | -12 | i | 0 | 1 | -8
O=C(COc1ccc(/C=N/NC(=O)c2cc3ccccc3o2)cc1Cl)Nc1ccccc1 | / | -5 | -2 | 116* | i | -52 | -33 | -10
Cc1ccc(C(=O)NC(C)c2ccc(-n3ccnc3)cc2)cc1 (stereo unspecified) | -14 | -3 | -7 | -16 | i | -2 | -3 | -14
Cc1ccc(C)n1-c1ccc(C(=O)N2CCC(C(N)=O)CC2)cc1 | -2 | 53 | 11 | / | i | -7 | 2 | / | eIF4H inh retest=-16;PABP polyA inh retest=5
Cc1ccc(NC(=O)Cn2ccc(=O)[nH]c2=O)cc1 | -1 | -5 | 10 | -14 | i | -1 | 5 | -12
Cc1nc2c(sc3nc4c(cc32)COC(C)(C)C4)c(=O)n1Cc1ccccc1 | / | 10 | -5 | 7 | i | 3 | -22 | -10
Cc1cc(C)c(C(N)=O)c(Nc2cccc(Cl)c2)n1 | / | 2 | 6 | -5 | i | 0 | 2 | -5
Cc1cc(C)c(C#N)c(N2CCOCC2)n1 | / | -2 | 8 | -8 | i | 0 | 2 | -12
CCOC(=O)c1ccc(S(=O)(=O)N2CCC(C(=O)OCC)CC2)cc1 | / | 8 | -7 | 4 | i | 1 | -8 | -5
COc1ccccc1-c1ccc(=O)n(CC(=O)NCc2ccco2)n1 | -3 | 14 | 2 | -6 | i | 0 | 0 | /
O=S(=O)(c1ccc(S(=O)(=O)N2CCN(Cc3ccccc3)CC2)cc1)N1CCOCC1 | / | -9 | 2 | / | i | / | / | /
CCN(CC)C(=O)c1cc(-c2ccccc2OC)on1 | -57 | 4 | -2 | -5 | i | -1 | 2 | -10
O=S(=O)(c1cccs1)N1CCCc2cccc(O)c21 | -20 | -1 | 6 | -13 | i | -4 | -2 | 15
CCc1ccc(N(C(=O)c2csnn2)C(C(=O)NC2CCCCC2)c2ccncc2)cc1 (stereo unspecified) | 34 | -6 | 2 | / | i | -4 | 0 | -17
Cc1ccccc1NC(=O)CN1C(=O)S/C(=C\c2ccc(-c3cccc(C(=O)O)c3C)o2)C1=O | -6 | 48 | 75 | -24 | i | -7 | -2 | / | eIF4H inh retest=10;PABP polyA inh retest=36
CC1(C)CC(=O)C(C=NCCN2CCN(C(=S)Nc3ccccc3)CC2)=C(O)C1 | -169 | -10 | -2 | -5 | i | -2 | 1 | -25
CCN(CC)C(=O)Cn1cnc2sc(C(=O)NCCCN3CCOCC3)c(C)c2c1=O | -1 | 0 | -2 | -1 | i | 1 | 4 | -9
Cc1nc2cc(Cl)ccc2c(=O)n1Cc1ccncc1 | -1 | -8 | 8 | -16 | i | 1 | -1 | -18
C=CCn1c(SCC(=O)Nc2cc3oc4ccccc4c3cc2OC)nnc1-c1cnccn1 | 20 | -2 | -10 | -11 | i | 4 | -3 | -14
COc1ccc(N2C(=O)C3CC=C(Cl)CC3C2=O)cc1 (stereo unspecified) | / | 11 | -8 | 6 | i | 4 | 5 | -21
COc1ccc(Cl)cc1NC(=O)CN1CCN(S(=O)(=O)N2CCC(C)CC2)CC1 | 3 | 0 | -4 | 15 | i | 4 | 5 | -4
Nc1ccc(S(=O)(=O)c2ccc(NC(=O)c3cccnc3)cc2)cc1 | -4 | / | / | / | / | 2 | -3 | -5
COc1ccc(-c2coc3c(C(=O)NCc4cccs4)cccc23)c(C)c1 | 11 | / | / | / | / | -6 | -28 | -3
CCOC(=O)c1cc(NCc2cccs2)ccc1N1CCOCC1 | 8 | -5 | -1 | -9 | i | 1 | 2 | -14
CS(=O)(=O)N1N=C(c2cccs2)CC1c1ccc(Cl)o1 (stereo unspecified) | -6 | -3 | 3 | 0 | / | -2 | -2 | /
CCn1nc(C)c(C(=O)Nc2cc(Oc3cc(C)cc(C)c3)cc([N+](=O)[O-])c2)c1C | ? | 3 | 5 | 71 | i | -6 | -7 | -10

Part of the list above in order of number of heavy atoms, largest number first.
SMILES | HIV Env fusion | PABP polyA inh | eIF4H inh | CSC inhib | Rce1 inh | MT1-MMP act inh | MT1-MMP act inh RFP | Yeast UUG start | others
Cc1ccccc1NC(=O)CN1C(=O)S/C(=C\c2ccc(-c3cccc(C(=O)O)c3C)o2)C1=O | -6 | 48 | 75 | -24 | i | -7 | -2 | / | eIF4H inh retest=10;PABP polyA inh retest=36
COc1ccc(Cl)cc1NC(=O)CN1CCN(S(=O)(=O)N2CCC(C)CC2)CC1 | 3 | 0 | -4 | 15 | i | 4 | 5 | -4
CS(=O)(=O)N1N=C(c2cccs2)CC1c1ccc(Cl)o1 (stereo unspecified) | -6 | -3 | 3 | 0 | / | -2 | -2 | /

Other records follow:
SMILES | HIV Env fusion | PABP polyA inh | eIF4H inh | CSC inhib | Rce1 inh | MT1-MMP act inh | MT1-MMP act inh RFP | Yeast UUG start | others
CCn1cc([N+](=O)[O-])c(C(=O)N2CCOCC2)n1 | 1 | 3 | 0 | -10 | i | -3 | 3 | 4
Cc1cccc(N2C(=O)N3[C@H](c4ccc(Br)cc4)[C@@H]4C(=O)N(C(C)(C)C)C(=O)[C@@H]4[C@]3(C)C2=O)c1 | 112* | 4 | -2 | -16 | i | 1 | -5 | 1
Cn1c(=O)[nH]c(=O)c2c1nc(SCCCO)n2CCCc1ccccc1 | 6 | 27 | -6 | -8 | i | 3 | 1 | -26
CCn1c2ccccc2c2cc(NC(=O)c3ccc(Br)o3)ccc21 | -49 | 48 | 13 | 2 | i | -49 | 10 | -26
COc1ccc(C2C3C=CCC(c4cccc(-c5ccc(C)cc5)c4)C3C(=O)N2Cc2ccccc2)cc1Cl (stereo unspecified) | 24 | -2 | -5 | 2 | i | -1 | -2 | -8
CCN(CC)C(=O)C1=C(C)NC(=S)NC1c1cn(-c2ccccc2)nc1-c1ccc(Cl)cc1 (stereo unspecified) | / | -7 | -16 | -16 | i | -6 | -8 | /
NC(=O)[C@@H]1CCCCNc2c(F)cc([N+](=O)[O-])cc2C(=O)N[C@@H](CC(=O)O)C(=O)NCC(=O)N1 | 14 | -9 | 0 | -4 | i | 3 | 2 | -8
CCCC(C)(C)C(=O)N1CCC1(C)C(=O)Nc1ccc2c(c1)OCCO2 (stereo unspecified) | -3 | / | / | / | / | 1 | 3 | -4
O=C(CN1CCN(C(=O)C2CC2)CC1)Nc1cc(C(F)(F)F)cc(C(F)(F)F)c1 | 12 | / | / | / | / | 2 | 0 | -3
Cn1c(=O)c2c(nc(Br)n2Cc2ccc3ccccc3c2)n(C)c1=O | 58* | 8 | 3 | 6 | i | 10 | 11 | -1
CCN(CC)CCOC(=O)c1c(C)n(C)c2ccc(OC)cc12 | / | -1 | 1 | -2 | i | -1 | 3 | -15
CC(C)CCNCC1OCc2ccccc2CO1 | -30 | -9 | 4 | 22 | i | -2 | 3 | /
COc1ccc(C)cc1NS(=O)(=O)c1ccc(NS(=O)(=O)c2ccc(NC(C)=O)cc2)cc1 | / | 3 | 5 | 8 | i | 7 | 3 | 18
CCOc1ccccc1-c1cc(C(=O)N2CCOCC2)c2ccccc2n1 | 14 | -3 | -6 | -1 | i | -2 | 3 | 2
N#CCC(=O)N1CCN(Cc2ccc3c(c2)OCO3)CC1 | -7 | / | / | -14 | i | 1 | -4 | 7
COc1cc(NC(=O)c2c(F)cccc2F)c(Cl)cc1Cl | 9 | 1 | -3 | -11 | i | 0 | 0 | /
Cc1ccnc2c1NC(=O)c1cccnc1N2C1CC1 | / | 24&1 | -3&9 | -2 | i | 2 | 4 | 1&-9
C=C(C)c1cccc(C(C)(C)NC(=O)Nc2ccc(C(N)=O)cc2)c1 | -11 | 2 | -9 | -5 | / | 0 | -3 | /
CCOC(=O)c1ccc(Nc2cc(C)nc(-c3ccccc3)n2)cc1 | -150 | 7 | 0 | 97* | i | -6 | -11 | -17
CC1CN(S(=O)(=O)c2ccccc2)CN1C(=O)N1CCOCC1 (stereo unspecified) | 14 | 1 | -12 | -10 | i | 0 | -1 | -16
Cc1cc(C)c(OCC(O)CNC(C)(C)C)c(C)c1 (stereo unspecified) | 19 | 3 | -10 | -19 | i | 3 | 5 | -12
CC1CC(C)CN(C(=O)CSC2=Nc3ccccc3C3=NC(Cc4c[nH]c5ccccc45)C(=O)N23)C1 (stereo unspecified) | / | 0 | 3 | / | i | -4 | -6 | 1
CCOC(=O)c1ccc(S(=O)(=O)n2c(CN3CCCCC3)nc3ccccc32)cc1 | 47 | 0 | 3 | 4 | i | -7 | -8 | -23
CC(=O)N(NC(N)=O)C(C)CC(=O)C1C(C)C=CCC1(C)C (stereo unspecified) | 4 | 5 | -2 | -9 | / | 0 | 3 | -21
CC1CC=C2C(C#N)=C(N)C(C#N)(C#N)C(c3cccs3)C2C1 (stereo unspecified) | / | 124* | 123* | -11 | i | -48 | 11 | -15
O=C(CN1CCOCC1)Nc1c(C(=O)C2CC2)oc2ccccc12 | -3 | 8 | -2 | 6 | i | 3 | 4 | 6
O=C(Nc1ccc([N+](=O)[O-])cc1)c1nc[nH]c1C(=O)NC1CCCCC1 | -5 | 16 | 21 | 17 | i | 0 | -11 | /
Cc1ccc(S(=O)(=O)N(C)c2ccc(OCC(=O)N3CCCC(C(F)(F)F)C3)cc2)cc1 (stereo unspecified) | 2 | / | / | 48 | i | -2 | -7 | -11
CCOc1ccccc1NC(=S)N1CCN(c2ccc(OC)cc2)CC1 | 6 | 0 | -1 | -15 | i | -3 | 1 | -19
COc1ccc(-n2nnnc2SCC(=O)NC2CCCC2)cc1OC | 13 | 11 | 0 | 2 | i | 2 | 2 | -7
Cc1ccc(NC(=O)c2cc(S(=O)(=O)NCC3CCCO3)ccc2F)cc1 (stereo unspecified) | 5 | / | / | / | / | 1 | -2 | -12
CCCc1nc2c(C)ccc(C)c2c(N)c1CC | -12 | 1 | -4 | / | i | 0 | 0 | /
O=C(CSc1nnc(-c2cnccn2)n1Cc1ccco1)c1ccc(Cl)cc1 | 9 | -4 | -4 | 0 | i | 5 | 5 | -5
COc1cc(C(=O)NNC(=O)/C=C/c2ccco2)cc(OC)c1OC | / | / | / | 19 | / | -1 | -5 | -7
CCc1c(C)sc(NC(=O)CN2CCN(C(=O)c3ccco3)CC2)c1C(=O)OC | 22 | 1 | -8 | 7 | i | -6 | -8 | 12
COc1ccc(CC(=O)Nc2ccccc2Oc2ccccc2)cc1 | 30 | -9 | -4 | 69 | i | / | / | /
Cc1ccccc1C(=O)c1cccn1CC(=O)NCc1ccc(F)cc1 | -1 | / | / | -7 | i | 2 | -2 | -12
